Screening results (PubChem BioAssay)
UCH37 DUB inh: human UCH37 deubiquitinating enzyme inhibition; AID 588478; purified proteasome/UCH37, Ub-AMC cleavage fluorescence; Q9Y5K5; inhibition, % (concentration not given with the values); hit rate 0.33% among 330,000;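 active means mean of two replicates above 20%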;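 further: 0% = compound-free wells with enzyme and 100% = wells lacking proteasome; stock transfer was 100 nL into about 20 µL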
Target sequence (Q9Y5K5 whole entry, looked up): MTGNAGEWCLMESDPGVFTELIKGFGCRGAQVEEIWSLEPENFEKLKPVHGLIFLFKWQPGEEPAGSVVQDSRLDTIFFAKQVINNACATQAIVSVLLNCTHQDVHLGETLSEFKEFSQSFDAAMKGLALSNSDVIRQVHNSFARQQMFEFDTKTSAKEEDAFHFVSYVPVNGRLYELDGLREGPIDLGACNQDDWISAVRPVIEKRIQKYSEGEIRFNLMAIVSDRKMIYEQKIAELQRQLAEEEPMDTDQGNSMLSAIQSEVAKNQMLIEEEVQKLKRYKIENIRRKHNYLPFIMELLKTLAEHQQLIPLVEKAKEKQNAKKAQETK
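Signal – fluorescence, ex 355 nm, em 460 nm · System – Proteasome-bound UCH37 · Input – 0.15 nM proteasome as dispensed · Timing – 30 min preincubation with enzyme, 25 min cleavage at room temperature · Read-out basis – percent inhibition of cleavage signal versus uninhibited and no-proteasome wells · Medium – Tris-HCl pH 7.4 with ATP-MgCl2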
LANA-H2B inh: blocks KSHV LANA binding to histone H2A/H2B; cell-free LANA-H2A/H2B peptide, fluorescence polarization; inhibition, % (no concentration beside the values); hit rate 0.6% among 320,000; AID 2629; in the data active means inhibition mostly above about 10%, no sharp cut-off; inactive means mostly below about 6.7%;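 further: stock transfer was 7.5 nL into about 10 µL; 0% = median of vehicle wells and 100% = median of positive control wells; one replicate is shown; the record names a cut of 25% in any replicate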
HNF4A DNA FP: change in binding of human HNF4 alpha to DNA; HNF4a-FITC DNA binding, fluorescence polarization, 1 h; P41235; activity change, % at 10 µM; hit rate 0.3% among 360,000; in the data active means activity change above about 30%, passing the limit was not always enough;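 further: controls were the assay level and a saturating level of protein; the project sought stronger binding though the title names inhibitors; some compounds called inactive have numbers as strong as hits; positive values seem to mean higher polarization but the record does not say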
Bfl-1 A1 inh: inhibitors of the anti-apoptotic protein A1, read as caspase activation. MEF A1-2A-BIM cells, Caspase-Glo 3/7 luminescence, 3 h; percent of clofoctol response, vehicle zero. caspase activation, % (no concentration beside the values). hit rate 0.066% among 330,000. AID 2462;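 active means over half of replicate activation scores above 10%, or exactly half above 10 with the replicate mean above 10; inconclusive means replicate mean below 10 yet half the replicates above 10; inactive means over half of replicates below 10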;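 further: wells of about 30 µL received 50 nL stock; many hits fall short of the cut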
B2AR ag: agonists of human beta-2 adrenergic receptor inducing internalization. hit rate 0.43% among 340,000. response, % (concentration not given with the values). Am2.2-beta2AR cells, FAP receptor internalization, flow cytometry; reference of the scale not given here. P07550. AID 504454;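 active means response above a set limit, near 3 SD of response in nonfluorescent compounds, cut at about 42% in these data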;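 further: stock transfer was 100 nL into about 11 µL; a reference agonist was the positive control; negative values mostly stem from fluorescent compounds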
Target sequence (P07550 whole entry, looked up): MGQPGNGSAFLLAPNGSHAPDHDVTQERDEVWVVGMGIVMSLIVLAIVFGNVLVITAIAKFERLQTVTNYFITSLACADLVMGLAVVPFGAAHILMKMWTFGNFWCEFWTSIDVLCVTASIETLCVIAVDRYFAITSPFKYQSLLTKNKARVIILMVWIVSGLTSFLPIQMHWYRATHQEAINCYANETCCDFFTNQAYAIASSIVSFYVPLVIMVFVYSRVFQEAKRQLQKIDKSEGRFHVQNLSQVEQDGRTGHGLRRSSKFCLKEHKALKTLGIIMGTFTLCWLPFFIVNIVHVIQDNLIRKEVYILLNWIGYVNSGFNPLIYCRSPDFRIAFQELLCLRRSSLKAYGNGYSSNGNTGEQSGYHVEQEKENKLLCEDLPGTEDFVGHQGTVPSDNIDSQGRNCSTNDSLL
Ecoli growth: inhibitors of Escherichia coli growth; OD600, 23 h; active compounds read low; OD600 absorbance (test concentration not listed); hit rate 0.21% among 330,000; AID 1053175;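 active means OD600 absorbance below the run mean of sample wells minus 3.6 SD, in any replicate, cut at about 0.56 in these data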;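 further: stock transfer was 300 nL into about 60 µL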
Vif A3G: inhibitors of Vif binding to APOBEC3G peptide, primary screen, biochemical, TR-FRET, GST-Vif 1-94, biotin-A3G peptide, dose response retest (AID 1117319). inhibition, %; hits with a dose series show IC50 in µM. hit rate 0.57% among 260,000. TR-FRET GST-Vif / biotin-A3G peptide binding; higher % means a stronger effect; test concentration not given here; strong numbers were not always called active;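 active means above the screen mean plus three standard deviations and confirmed in dose response; inconclusive means results disagree or hit not tested in dose response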;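 further: Vif residues 1-94 fused to GST binding biotinylated APOBEC3G peptide 110-148; 0% = full assay without inhibitor and 100% = GST in place of GST-Vif; retest series ran down from 100 µM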
* = called active by the depositor; ? = inconclusive; nt = not tested or not shown.

SMILES	UCH37 DUB inh	LANA-H2B inh	HNF4A DNA FP	Bfl-1 A1 inh	B2AR ag	Ecoli growth	Vif A3G
Cc1ncc(CO)c2cc(C(N)=O)c(=Nc3ccccc3)oc12	4.6	-1.4	0.2	-0.6	2	0.72	14%
O=C(CCc1nc2ccccc2c(=O)[nH]1)Nc1cc(Cl)ccc1N1CCCC1	4.4	nt	6.9	nt	7	0.66	nt
CN(C(=O)CSc1nnc(-c2cccs2)n1C1CC1)C1CCS(=O)(=O)C1 (stereo unspecified)	0.2	nt	-2.3	nt	-1	0.71	-5%
Cc1cc[n+](-c2[nH]c(=O)sc2/C=N/NC([S-])=Nc2ccccc2)cc1C	nt	nt	-35	0.9	12	nt	nt
O=C(Cc1ccc(Cl)cc1)N1CCN(C(=O)c2ccco2)CC1	0.7	-0.4	-3.1	?	-1	0.74	-1%
CCCc1ccc(-c2ccc(-c3noc(-c4ccncc4)n3)cc2)nc1	2.5	-1.8	-0.8	0.4	-5	0.65	-10%
CCOc1ccc(CCNC(=O)COC(=O)/C=C/c2ccc(OC)c(OC)c2)cc1OCC	-7.0	0.6	-0.8	0.0	-4	0.68	nt
COC(=O)c1cc2sccc2n1Cc1nc(-c2ccc(OC)cc2)oc1C	-0.4	-2.4	2.9	-0.1	-2	0.71	-12%
COC(=O)c1c(C)oc2ccc(N(C(=O)c3ccncc3)S(=O)(=O)c3ccc4ccccc4c3)cc12	0.7	1.1	4.5	0.1	4	0.67	nt
Cn1ncc([N+](=O)[O-])c1C(=O)Nc1cccc2ccccc12	5.9	-1.0	1.8	0.4	8	0.69	30%
Cc1cc(C=O)c(C)n1-c1cccc(C(=O)O)c1	2.9	-7.7	-9.1	-0.7	2	0.64	?
Cc1c(Cc2ccccc2)c(=O)oc2c(C)c(OCC(=O)N3CCC(C(=O)O)CC3)ccc12	-139	0.1	5.9	0.2	2	0.72	nt
COc1ccc(/C=C/c2ccncc2)cc1	-7.6	-0.7	0.2	-3.0	-1	0.66	-2%
COc1ccc(COCC(O)CN2CCCC(C(F)(F)F)C2)cc1 (stereo unspecified)	nt	3.3	-0.6	0.4	0	nt	nt
O=C(O)c1ccccc1SCc1cn2ccccc2n1	4.4	-7.1	1.7	-0.1	8	0.64	2%
CCN(CC)CCOC(=O)c1ccc(NC(=O)/C=C/c2cccs2)cc1	12	1.6	1.3	-2.0	-10	0.66	-2%
CSC1=NCCN1S(=O)(=O)c1ccccc1	0.6	5.3	3.0	-0.5	-4	0.63	-7%
COc1cc(N2CCOCC2)ccc1C=C(C#N)C#N	2.1	0.9	0.1	-0.3	5	0.75	nt
CC[C@H](C)[C@H]1CNC(=O)C(=O)N1CC1CCN(CCc2ccc(Cl)c(Cl)c2)CC1	nt	nt	-0.7	nt	-3	nt	-1%
Cc1nc(C(F)(F)F)nc(Nc2ccc(N=Nc3ccccc3)cc2)c1C#N	2.3	2.3	-1.5	0.8	17	0.69	nt

Brought forward from above: three compounds, followed by the next part.
SMILES	UCH37 DUB inh	LANA-H2B inh	HNF4A DNA FP	Bfl-1 A1 inh	B2AR ag	Ecoli growth	Vif A3G
COc1cc(N2CCOCC2)ccc1C=C(C#N)C#N	2.1	0.9	0.1	-0.3	5	0.75	nt
CC[C@H](C)[C@H]1CNC(=O)C(=O)N1CC1CCN(CCc2ccc(Cl)c(Cl)c2)CC1	nt	nt	-0.7	nt	-3	nt	-1%
Cc1nc(C(F)(F)F)nc(Nc2ccc(N=Nc3ccccc3)cc2)c1C#N	2.3	2.3	-1.5	0.8	17	0.69	nt
CCOC(=O)C(=O)Nc1ccccc1C(=O)OC	1.1	-0.4	-0.2	-1.4	1	0.7	4%
Cc1cccc(N2CCN(C(=O)CCNS(=O)(=O)c3ccc4c(c3)CCC(=O)N4)CC2)c1C	4.1	-0.7	2.2	0.3	2	0.68	-1%
CC(=O)C1=NN(c2ccccc2)C(c2ccc3c(c2)OCO3)N1c1ccc(N2CCOCC2)cc1 (stereo unspecified)	4.6	-9.0	-1.6	-1.1	3	0.68	6%
CCOC(=O)c1[nH]c(=O)[nH]c1CSc1ccccn1	1.5	-2.7	-1.1	-0.4	-4	0.72	21%
C=CCn1c(SCC(=O)c2ccccc2)nnc1-c1ccc2c(c1)OCO2	-3.0	4.4	-0.6	0.0	-73	0.75	8%
O=C(COc1ccc(Cl)cc1)N1CCN(S(=O)(=O)c2ccccc2)CC1	-0.5	2.7	-2.8	0.2	-10	0.65	-2%
Cc1nnsc1NC(=O)OCc1ccccc1Cl	0.0	4.4	-1.8	-2.0	6	0.68	25%
CCOc1ccccc1N(CC(=O)NCCSc1ccccn1)S(=O)(=O)c1ccc(C)cc1	1.2	-3.5	-4.8	-0.2	-1	0.72	-1%
CCN(CC)C(=O)c1sc(NC(=O)Cc2ccccc2)c(C#N)c1C	5.0	4.4	4.1	-0.1	1	0.69	nt
COC(=O)c1cc(C(=O)N2CCN(c3ncccn3)CC2)cc([N+](=O)[O-])c1	5.4	5.5	0.2	0.7	-4	0.69	nt
N#Cc1c(C(F)(F)F)cc(-c2ccc(F)cc2)nc1SCC(=O)O	8.1	-4.0	0.8	0.8	10	0.72	nt
NC(=S)c1cc2cc(Cl)ccc2oc1=O	1.3	-2.2	-2.0	0.0	-4	0.72	nt
O=C(Nc1ccccc1-c1ccccc1)C1CCCN(c2ncccn2)C1 (stereo unspecified)	-3.6	1.8	0.7	0.9	-4	0.66	-6%
c1cncc(C2Nc3ccccc3-c3nc4ccccc4n32)c1 (stereo unspecified)	-240	2.0	-0.9	-0.2	0	0.69	-3%
O=c1c2ccccc2ncn1Cc1ccco1	2.1	9.8	2.2	1.4	-7	0.66	3%
COC(=O)/C=C1/S/C(=N/N=C/c2ccco2)NC1=O	nt	-6.6	0.2	-3.6	15	nt	0%
Cc1cc(-n2cc(Br)c(=O)[nH]c2=O)nc(-c2ccccc2)n1	-0.3	0.0	0.1	1.4	5	0.75	?
CCOc1cc2c(cc1OC)C(NC(=O)C(F)(F)F)CC2=O (stereo unspecified)	-2.2	-0.2	3.0	-0.5	1	0.7	6%
CC(=O)C1=C(O)C(=O)N(c2ccc(Br)cc2)C1c1cccc([N+](=O)[O-])c1 (stereo unspecified)	6.9	-1.2	-2.4	0.5	-8	0.71	nt
COc1cc(/C=N\Nc2nc3ccccc3[nH]2)cc(OC)c1OC	nt	-2.6	-0.2	0.2	-8	nt	0%
CN(C)c1ccc(-c2n(C)c3ccccc3[n+]2C)cc1	1.0	0.2	0.3	-0.6	-19	0.65	2%
Cc1nc(SCC(=O)Nc2ccnc3ccccc23)n[nH]1	4.2	1.2	3.8	0.7	2	0.64	69%
O=C(Nc1ccc2c(c1)C(=O)OC2)c1ccc(C(F)(F)F)cc1	2.3	2.0	1.0	-0.9	1	0.63	nt
CCC(=O)Nc1nnc(SCC(=O)NCc2ccc3c(c2)OCO3)s1	0.5	-4.0	2.4	-0.4	6	0.66	nt
O=C(c1ccc(-c2ccccc2)cc1)N1CCN(c2nc3ccccc3o2)CC1	4.6	nt	-2.6	nt	-5	0.76	nt
CN(C)/N=C/c1ccc(P(c2ccc(/C=N/N(C)C)o2)c2ccc(/C=N/N(C)C)o2)o1	nt	-10	-3.6	-1.0	4	nt	nt
C=CCNc1nc(C(=O)OCC(=O)Nc2cc(S(C)(=O)=O)ccc2Cl)cs1	3.0	-0.1	-2.2	1.2	12	0.68	-5%
Oc1cc2c(cc1CN1CCN(c3cccc(C(F)(F)F)c3)CC1)CCC2	1.1	-5.3	4.2	0.3	4	0.75	-2%
CC(Sc1ccccc1)C(=O)N1CCN(S(=O)(=O)c2ccccc2C(F)(F)F)CC1 (stereo unspecified)	1.3	2.8	-8.7	-0.8	2	0.69	nt
CCOC(=O)N1CCN(S(=O)(=O)c2ccc(OCC(=O)OC)c(C)c2)CC1	-1.5	4.5	4.2	0.6	6	0.7	0%
Cc1nnsc1S(=O)c1ccccc1Cl (stereo unspecified)	2.2	1.2	1.1	-3.3	-2	0.69	-1%
COc1ccc(Cc2nnc(SCC(=O)Nc3cc(Cl)ccc3C)[nH]c2=O)cc1	2.2	1.0	0.1	0.4	-2	0.69	3%
O=C1c2ccccc2S(=O)(=O)N1Cc1nnc(-c2ccccc2Br)o1	nt	nt	-1.6	nt	8	0.67	4%
c1ccc2c(c1)CCCn1nnnc1-2	3.0	-0.1	0.5	0.1	-1	0.69	2%
O=C(COC(=O)/C=C/c1ccccc1)NCCc1ccc(F)cc1	-1.3	-2.4	2.9	0.0	-11	0.71	-1%
CC(C)c1nnc(NC(=O)C2CCCN2C(=O)Nc2ccccc2F)s1 (stereo unspecified)	5.4	0.6	0.3	-0.4	4	0.69	nt
CCOc1cc(NC(=O)c2cccs2)c(OCC)cc1NC(=O)c1ccco1	-261	-4.6	3.0	-0.4	-14	0.7	6%
O=C(Nc1ccc(Cl)c(Cl)c1)C1C2C=CC3(O2)C1C(=O)N(CCN1CCCCC1)C3C(=O)NC1CCCCC1 (stereo unspecified)	5.4	2.3	0.6	0.1	-5	0.67	nt
COC(=O)C1CCN(C(=O)COC(=O)c2cc(S(=O)(=O)N3CCOCC3)ccc2C)CC1	-2.9	-3.9	-1.0	0.5	6	0.69	nt
CC1Cc2ccccc2N1C(=O)c1ccnc(C(C)(C)C)c1 (stereo unspecified)	4.6	2.9	6.1	0.8	-10	0.68	3%
Cc1ccc2nc(-c3ccc(NC(=O)CN4CCN(C(=O)c5ccco5)CC4)cc3)sc2c1	-222	-0.6	0.6	0.1	9	0.67	2%
O=C(Nc1ccc(O)cc1)c1cc2ccccc2c(=O)s1	5.2	9.4	-1.6	-1.8	3	0.66	?
Cc1ccc(O)c(NC(=O)c2cc(-c3ccccc3)on2)c1	1.8	0.2	-0.7	-8.0	17	0.67	10%
CCCC(=O)Nc1nnc(SCC(=O)Nc2ccc3c(c2)OCO3)s1	nt	2.4	-3.4	0.7	7	nt	?
Cc1cc(NC(=O)CC2Oc3ccccc3NC2=O)ccc1Br (stereo unspecified)	2.5	1.9	-0.1	-0.5	-8	0.66	-4%
CN1CCN(C(CC(=O)Nc2cccc(O)c2)C(=O)O)CC1 (stereo unspecified)	-1.2	0.0	nt	0.5	nt	0.74	-6%
O=C1CCc2cc(NS(=O)(=O)c3ccc(Br)cc3)cc3c2N1CC3	2.5	0.9	0.5	0.9	3	0.65	-5%
Cc1c(C(=O)Nc2ccccn2)oc2ccc(Br)cc12	-5.2	4.4	3.9	-1.6	0	0.66	-14%
CC1=C(C(=O)Nc2ccc(C)cc2C)C(c2ccc([N+](=O)[O-])cc2)n2ncnc2N1 (stereo unspecified)	3.2	4.2	1.3	0.4	0	0.71	1%
Cc1oc2ccc(O)c(CN3CCOCC3)c2c1C(C)O (stereo unspecified)	4.3	4.2	-1.4	-0.8	-8	0.69	-6%
Brc1c(-c2ccc3c(c2)OCO3)nc2ncccn12	nt	1.3	-0.9	-4.5	-3	nt	-4%
CCCCn1c(=N)n(CC(O)c2ccccc2)c2ccccc21 (stereo unspecified)	1.8	0.2	0.7	1.1	5	0.64	33%

Only Bfl-1 A1 inh, for some of the entries so far:
canonical_smiles | Bfl-1 A1 inh
CN1CCN(C(CC(=O)Nc2cccc(O)c2)C(=O)O)CC1 (stereo unspecified) | 0.5
O=C1CCc2cc(NS(=O)(=O)c3ccc(Br)cc3)cc3c2N1CC3 | 0.9
Cc1c(C(=O)Nc2ccccn2)oc2ccc(Br)cc12 | -1.6
